Screening results (PubChem BioAssay)
Mtb growth: M. tuberculosis H37Rv growth inhibitors, H37Rv strain (AID 1626); M. tuberculosis H37Rv growth inhibition; higher % means a stronger effect; inhibition, % at 10 µM, or IC50 in µM where a hit was titrated; 220,000 compounds, 0.95% hits;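 active = confirmed in a dose series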;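 note: bacteria incubated seven days before Alamar blue readout; 0% = bacteria only wells and 100% = bacteria with antibiotic wells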
RecA splice inh: blocks M. tuberculosis RecA intein splicing; cell-free RecA intein splicing, fluorescence; inhibition, %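 (about 9 µM by stock and volumes)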; 290,000 compounds, 0.75% hits; P9WHJ3; AID 2221; in the data active = inhibition above about 30%;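 note: 0% = vehicle wells and 100% = reference inhibitor control wells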
Target sequence (P9WHJ3 whole entry, looked up, canonical isoform): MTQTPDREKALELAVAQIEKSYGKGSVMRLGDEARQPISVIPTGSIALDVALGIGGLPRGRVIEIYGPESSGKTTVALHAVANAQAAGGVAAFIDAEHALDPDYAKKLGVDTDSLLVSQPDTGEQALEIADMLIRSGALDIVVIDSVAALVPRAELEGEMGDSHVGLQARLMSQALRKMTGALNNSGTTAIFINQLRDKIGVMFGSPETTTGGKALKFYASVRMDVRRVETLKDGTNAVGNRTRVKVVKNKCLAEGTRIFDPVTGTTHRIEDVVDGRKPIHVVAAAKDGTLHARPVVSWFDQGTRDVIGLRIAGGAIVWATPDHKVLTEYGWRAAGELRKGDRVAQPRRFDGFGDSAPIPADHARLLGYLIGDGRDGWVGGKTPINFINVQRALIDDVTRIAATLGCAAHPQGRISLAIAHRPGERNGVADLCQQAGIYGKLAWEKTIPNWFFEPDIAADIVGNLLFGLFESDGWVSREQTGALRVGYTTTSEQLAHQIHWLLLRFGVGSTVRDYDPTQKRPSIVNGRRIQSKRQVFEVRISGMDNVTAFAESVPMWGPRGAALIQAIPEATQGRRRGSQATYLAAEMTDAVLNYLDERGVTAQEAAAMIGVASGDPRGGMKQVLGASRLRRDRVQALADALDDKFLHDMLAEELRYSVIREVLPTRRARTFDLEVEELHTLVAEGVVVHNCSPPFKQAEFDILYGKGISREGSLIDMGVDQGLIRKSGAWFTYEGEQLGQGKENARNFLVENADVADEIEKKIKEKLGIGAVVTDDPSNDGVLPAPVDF
The depositor's hits bear a star; nt = not tested or not shown. This is a subset; rates above refer to the full screens.

Molecule | Mtb growth | RecA splice inh
Cc1ccc(N2C(=O)NC(=O)/C(=C/c3ccoc3)C2=O)cc1 | -5% | nt
CCC12CSc3nc(Cl)ccc3N1C(=O)C(=O)N2C (centres undefined) | -5% | nt
CC[C@]1(O)CC2CN(CCc3c([nH]c4ccccc34)[C@@](C(=O)OC)(c3cc4c(cc3OC)N(C)[C@H]3[C@@](O)(C(N)=O)[C@H](O)[C@]5(CC)C=CCN6CC[C@]43[C@@H]65)C2)C1 (some centres undefined) | -14% | nt
CCc1ccc(NC(=O)CSc2nccn(-c3ccc4c(c3)OCCO4)c2=O)cc1 | nt | 20
CC(=O)Nc1ccc(S(=O)(=O)Nc2ccn(Cc3ccccc3Cl)n2)cc1 | nt | 2.0
Cn1c2ccc(F)cc2c2nnc(SCCN3CCCCC3)nc21 | nt | 3.3
Cc1cc(C(=O)Nc2ccc(Br)cc2F)n(-c2ccccc2)n1 | nt | 3.2
CCN1CCN(c2ccc(NC(=O)c3ccc(Br)o3)cc2)CC1 | nt | 2.2
Cc1onc(-c2ccccc2Cl)c1C(=O)N1CCC(C(N)=O)CC1 | nt | 0.2
CC(=O)Nc1cccc(NC(=O)C(=O)Nc2ccc3c(c2)N(C(=O)C2CC2)CCC3)c1 | nt | 3.4
CC(C)(C)N=C(NS(=O)(=O)c1cccs1)c1ccccc1 | nt | -6.6
CC(=O)c1ccc(NC(=O)CN2CCN(CC(=O)Nc3ccc(C(C)=O)cc3)CC2)cc1 | nt | 1.3
O=C(c1cccc(NS(=O)(=O)c2cccc(F)c2)c1)N1CCCC1 | nt | 1.4
O=C(Cc1ccccc1)NCC(=O)Nc1cc(Cl)ccc1Cl | nt | -0.3
Cc1ccc2c(c1)N(CC(=O)N1CCC(O)CC1)C(=O)CO2 | nt | -0.5
COc1ccc(Cl)cc1NC(=O)NNC(=O)c1ccccn1 | nt | 11
O=C(CN1CCN(CC(=O)Nc2ccccc2F)CC1)Nc1cccc(F)c1 | nt | 7.2
CC[C@@](C)(NS(=O)(=O)OCC(Cl)(Cl)Cl)c1ccccc1 | nt | 4.4
CCN(CC(=O)NCc1ccc(F)cc1)C(=O)/C=C/c1cc(OC)ccc1OC | nt | -31
CC1CCC2C(=O)N(c3cc(Cl)ccc3OC(=O)c3ccco3)C(=O)C2C1 (centres undefined) | nt | 13
COc1ccc(C(=O)Nc2nc3ccc(OC)cc3s2)cc1 | nt | 3.0
CCOc1ccc(NC(=O)CN2CCN(CC(=O)Nc3ccc(N(C)C)cc3)CC2)cc1 | nt | -1.5
Cc1cc(C)n(Cc2cccc(C(=O)N/N=C/c3cccnc3)c2)n1 | nt | -4.9
COC(=O)C1CCN(S(=O)(=O)c2cc3c4c(c2)CCN4C(=O)CC3)CC1 | nt | 2.5
CC1(C)CC(NC(=O)C2CCC(=O)N(Cc3ccccc3F)C2)CC(C)(C)C1 (centres undefined) | nt | -1.9
CN1CCN2c3ccc(N)cc3CC3(C(=O)NC(=O)NC3=O)C2C1 (centres undefined) | nt | 55*
CC1CN(c2ccc(Cl)cc2)c2nc3c(c(=O)[nH]c(=O)n3C)n2C1 (centres undefined) | nt | -0.2
COc1ccc(CN2CCN(c3nc4ccccc4s3)CC2)cc1 | nt | 0.0
O=C(CNC(=O)c1ccccc1)NCC(=O)OCC(=O)c1ccccc1Cl | nt | -3.1
CCOC(=O)N1CCN(CC(=O)Nc2nnc(C(F)(F)F)s2)CC1 | nt | 0.2
Cc1cc2c(SCC(=O)NCC3CCCO3)ncnc2s1 (centres undefined) | nt | 2.1
O=C(N/N=C/c1ccco1)c1cc(-c2ccncc2)nc2ccccc12 | nt | 1.7
COCCNC(=O)Cn1nc(-c2ccccc2F)ccc1=O | nt | -0.7
O=C1NC2=C(C(=O)CCC2)C(c2cccc([N+](=O)[O-])c2)N1 (centres undefined) | nt | -0.5
Cc1nn(C)c(C(=O)NNC(=O)NC2CCCCC2)c1Cl | nt | -0.2
COc1ccc(C(=O)Nc2ccc(NC(=O)c3ccccn3)cn2)cc1 | nt | 0.0
CCCN(CCC)c1nc2c(C)cccn2c(=O)c1/C=C1/SC(=S)N(Cc2ccco2)C1=O | nt | -1.7
COc1ccc(N(C(=O)c2snc(C(N)=O)c2N)C(C(=O)NCc2ccccc2)c2ccc(O)cc2)cc1OC (centres undefined) | nt | 3.5
CC(C)NC(=O)c1ccc2c(c1)N(CC(=O)NC1CCCCC1)C(=O)C(C)(C)O2 | nt | 0.1
Cc1cc(C)n(C(=O)CNC(=O)c2cccc(F)c2)n1 | nt | 1.2
O=C(CN1C(=O)c2ccccc2S1(=O)=O)Nc1ccc(S(=O)(=O)Nc2ncccn2)cc1 | nt | 12
Cn1cc(Cl)c(C(=O)OCC(=O)Nc2ccc(S(N)(=O)=O)cc2)n1 | nt | 1.5
CC1CCCN(Cc2c(O)ccc3c(=O)c(-c4ccc(Cl)cc4)coc23)C1 (centres undefined) | nt | -0.2
O=C(NC1CCCN(Cc2ccc(Cl)cc2)C1)c1ccccc1-c1ncc[nH]1 (centres undefined) | nt | 0.8
O=C(Nc1ccnn1C1CCN(Cc2ccc(F)cc2)CC1)C1CC1 | nt | 5.4
CCc1ccc(N=C2NC(=O)/C(=C/c3ccc(OCC(=O)O)c(OC)c3)S2)cc1 | nt | 1.8
O=C(Nc1ccc2c(c1)CCC2)c1ncoc1-c1ccccc1F | nt | 2.5
CCOc1ccccc1CN1CCC(Oc2ccc(C(=O)NCc3ccccn3)cc2)CC1 | nt | 3.1
COc1ccccc1NC(=O)c1cc(-c2ccc(OC)c(OC)c2)nc2ccccc12 | nt | 0.1
CCOc1ccc(N(CC(=O)N2CCN(c3ccccc3OC)CC2)S(=O)(=O)c2ccc(C)cc2)cc1 | nt | 2.0

The list continues.
Molecule | Mtb growth | RecA splice inh
CCN(CC1CCCO1)C(=O)c1cc(COc2cc(C)c(Cl)c(C)c2)on1 (centres undefined) | nt | 5.5
O=C(NC(=S)Nc1ccc(CN2CCOCC2)cc1)c1cccc(F)c1 | nt | -6.2
COc1cc(Cl)ccc1OCc1cc(C(=O)NCC(C)(C)N2CCOCC2)no1 | nt | 3.1
Cc1ccc(O)c(CNc2cccc(C)n2)c1 | nt | 0.5
CCN1C(=O)/C(=C2\SC(N3CCOCC3)=NC2=O)c2ccccc21 | nt | -0.2
Cc1ccccc1CNC(=O)C(=O)NCC1CCCN1S(=O)(=O)c1cccs1 (centres undefined) | nt | 2.3
CCCCC(c1nnnn1CS(=O)(=O)c1ccc(C)cc1)N1CCC(C(N)=O)CC1 (centres undefined) | nt | 2.1
CCCn1c(C(O)c2cccc(OC)c2)nc2ccccc21 (centres undefined) | nt | 0.6
O=C(Nc1ccc(Cl)cc1)Nn1cnnc1 | nt | 0.9
CCn1cc(CNC(=O)C2CCC(=O)N(CCc3cccc(F)c3)C2)cn1 (centres undefined) | nt | -0.8
O=C(CSc1nccn(-c2ccc(F)c(F)c2)c1=O)NC1CCCC1 | nt | 4.7
Cc1ccc(S(=O)(=O)n2c(C)nc3ccccc32)cc1 | nt | 1.8
COc1ccccc1-n1c(-c2ccc(C)cc2)nc2ccccc2c1=O | nt | -0.4
COc1ccc(N2CCN(C(=O)c3cccc(NS(=O)(=O)c4cccc(F)c4)c3)CC2)cc1 | nt | 0.8
COc1ccc(N(CC(=O)NC2CCCC2)C(=O)Cn2nnc(-c3ccc(C)o3)n2)cc1 | nt | 2.7
CCOC(=O)/C(C#N)=C/c1c(N2CCN(c3cccc(Cl)c3)CC2)nc2c(C)cccn2c1=O | nt | 0.5
Cc1cnc(CNC(=O)C2CCC(=O)N(CCc3ccc(Cl)cc3)C2)cn1 (centres undefined) | nt | 1.0
CC(=O)NC(Cc1cccc(C)c1)C(=O)NC1CCN(C(=O)NCc2ccccc2)CC1 (centres undefined) | nt | 0.5
COc1ccc(CN2CCC(n3nccc3NC(=O)CCc3ccccc3)CC2)c(C)c1C | nt | 6.8
Cc1ccc(S(=O)(=O)Nc2cc(=O)[nH]c(SCC(=O)Nc3cccc(C(F)(F)F)c3)n2)cc1 | nt | 3.3
COc1cccc(CNc2nc3ccccc3n2C(C)C)c1O | nt | -0.7
COc1ccccc1CSc1nc2c(c(=O)n(C)c(=O)n2C)n1C | nt | -1.8
Cc1onc(-c2ccccc2Cl)c1C(=O)N1CCCCCC1 | nt | 1.8
COc1ccc(S(=O)(=O)N2CCN(Cc3cccnc3)CC2)cc1 | nt | 2.2
COc1ccc(C(C(=O)NC2CCCCC2)N(CC2CCCO2)C(=O)CCCC(=O)Nc2ccccn2)cc1 (centres undefined) | nt | 2.1
COc1ccc(/C=C/C(=O)N(C)C2CCS(=O)(=O)C2)cc1 (centres undefined) | nt | 1.6
CCOc1ccc(N(CC(=O)NCCSCc2ccccc2Cl)S(C)(=O)=O)cc1 | nt | 1.4
CCN1CCN(C(=O)c2cc(-c3ccc(Cl)s3)nc3ccccc23)CC1 | nt | -3.7
COc1cccc(C(=O)Nc2ccc(NC(=O)C3CCCCC3)nc2)c1 | nt | 1.0
COc1cc(/C=C/CN2CCC(Oc3ccc(C(=O)N4CCCC4)cc3)CC2)ccc1O | nt | -1.3
CN(Cc1ccon1)C(=O)CC1C(=O)NCCN1Cc1ccccc1C(F)(F)F (centres undefined) | nt | -0.7
COCc1cc(C)nc(Sc2nc3c(c(=O)n(C)c(=O)n3C)n2C)c1C#N | nt | -0.3
C#Cc1ccc(CN2CCC(Oc3cc(C(=O)NC4CC4)ccc3OC)CC2)cc1 | nt | 3.3
COc1ccc(NC(=O)c2ccco2)cc1NC(=O)c1ccccc1 | nt | -0.1
CN(C)N1C(N)=C(C#N)C(c2cccc([N+](=O)[O-])c2)C2=C1CC(C)(C)CC2=O (centres undefined) | nt | -0.3
COCc1cc(=O)n2[nH]cc(-c3ccccc3)c2n1 | nt | -0.2
COc1ccccc1NC(=O)CSc1nnnn1C1CCCC1 | nt | 0.8
C[C@@H]1CN(c2c(F)c(F)c3c(=O)c(C(=O)O)cn(C4CC4)c3c2F)C[C@H](C)N1 | nt | 0.6
CN(Cc1ccccc1Cl)C(=O)C1CCC(=O)N(C2CCCCCC2)C1 (centres undefined) | nt | -1.5
Cc1ccc(S(=O)(=O)NCC(c2ccccc2)N2CCN(c3ccc(F)cc3)CC2)cc1 (centres undefined) | nt | -0.1
COc1ccc(CN2CCNC(=O)C2CC(=O)NC2CCOCC2)cc1C (centres undefined) | nt | -6.1
CN(CCc1cn[nH]c1)C(=O)C1CCC(=O)N(CC2CCCCC2)C1 (centres undefined) | nt | -2.8
COc1ccc(-n2c(CN3CCN(c4ccccc4OC)CC3)nc3ccc([N+](=O)[O-])cc3c2=O)c(OC)c1 | nt | 0.7
Cc1ccccc1C(=O)Nc1ccnn1C1CCN(Cc2c(C)n(C)c3ccccc23)CC1 | nt | 7.4

Filtered by structure, the entries above containing fluorine
Molecule | Mtb growth | RecA splice inh
Cn1c2ccc(F)cc2c2nnc(SCCN3CCCCC3)nc21 | nt | 3.3
Cc1cc(C(=O)Nc2ccc(Br)cc2F)n(-c2ccccc2)n1 | nt | 3.2
O=C(c1cccc(NS(=O)(=O)c2cccc(F)c2)c1)N1CCCC1 | nt | 1.4
O=C(CN1CCN(CC(=O)Nc2ccccc2F)CC1)Nc1cccc(F)c1 | nt | 7.2
CCN(CC(=O)NCc1ccc(F)cc1)C(=O)/C=C/c1cc(OC)ccc1OC | nt | -31
CC1(C)CC(NC(=O)C2CCC(=O)N(Cc3ccccc3F)C2)CC(C)(C)C1 (centres undefined) | nt | -1.9
CCOC(=O)N1CCN(CC(=O)Nc2nnc(C(F)(F)F)s2)CC1 | nt | 0.2
COCCNC(=O)Cn1nc(-c2ccccc2F)ccc1=O | nt | -0.7
Cc1cc(C)n(C(=O)CNC(=O)c2cccc(F)c2)n1 | nt | 1.2
O=C(Nc1ccnn1C1CCN(Cc2ccc(F)cc2)CC1)C1CC1 | nt | 5.4
O=C(Nc1ccc2c(c1)CCC2)c1ncoc1-c1ccccc1F | nt | 2.5
O=C(NC(=S)Nc1ccc(CN2CCOCC2)cc1)c1cccc(F)c1 | nt | -6.2
CCn1cc(CNC(=O)C2CCC(=O)N(CCc3cccc(F)c3)C2)cn1 (centres undefined) | nt | -0.8
O=C(CSc1nccn(-c2ccc(F)c(F)c2)c1=O)NC1CCCC1 | nt | 4.7
COc1ccc(N2CCN(C(=O)c3cccc(NS(=O)(=O)c4cccc(F)c4)c3)CC2)cc1 | nt | 0.8
Cc1ccc(S(=O)(=O)Nc2cc(=O)[nH]c(SCC(=O)Nc3cccc(C(F)(F)F)c3)n2)cc1 | nt | 3.3
CN(Cc1ccon1)C(=O)CC1C(=O)NCCN1Cc1ccccc1C(F)(F)F (centres undefined) | nt | -0.7
C[C@@H]1CN(c2c(F)c(F)c3c(=O)c(C(=O)O)cn(C4CC4)c3c2F)C[C@H](C)N1 | nt | 0.6
Cc1ccc(S(=O)(=O)NCC(c2ccccc2)N2CCN(c3ccc(F)cc3)CC2)cc1 (centres undefined) | nt | -0.1
